# Bioassay records (PubChem)
# AmpC inh no det: AmpC beta-lactamase inhibition, detergent-free assay; P00811; AmpC nitrocefin hydrolysis, absorbance 480 nm, no detergent; potencies from a single point are estimates; Potency, µM (highest dose often 28.7 µM), for inactives: top-dose activity change, negative = inhibition; actives 1.8% (n = 71,000); active = falling curve, for most hits resting on a single point; inconclusive = weak or doubtful change; inactive = flat or rising curve; further: % of control where 0% means no effect; about half of the hits show no inhibition at the top dose; a quarter of the inactives give rising signals
# Target sequence (P00811 whole entry, looked up): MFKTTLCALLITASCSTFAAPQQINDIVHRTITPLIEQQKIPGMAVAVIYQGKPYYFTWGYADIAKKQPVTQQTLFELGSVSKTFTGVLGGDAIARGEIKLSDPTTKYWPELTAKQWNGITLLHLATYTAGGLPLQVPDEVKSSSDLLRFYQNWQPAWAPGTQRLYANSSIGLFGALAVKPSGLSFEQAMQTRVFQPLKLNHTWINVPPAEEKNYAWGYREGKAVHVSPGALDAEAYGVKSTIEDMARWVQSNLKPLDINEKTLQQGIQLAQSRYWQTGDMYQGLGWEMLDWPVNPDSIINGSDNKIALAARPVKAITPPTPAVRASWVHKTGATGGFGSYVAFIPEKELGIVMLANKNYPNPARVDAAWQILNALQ
#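 AmpC in 20 mM phosphate buffer pH 7.0 was preincubated 15 min at room temperature with compounds. Nitrocefin (800 uM stock) was then added and hydrolysis followed at 480 nm every 20 s for 4 min.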
# Numbers without * were called inactive; u = inconclusive; [ ] = another dose, or the depositor's remark. Potency means the concentration at half of the fitted maximal effect.
molecule | AmpC inh no det
Cc1cccc(Nc2nc3c(c(=O)n(C)c(=O)n3C)n2CC(O)CO)c1 (stereo not drawn) | 35.7%
O=C(Nc1nccs1)c1ccc(S(=O)(=O)NCc2cccs2)cc1 | u
CCCOc1ccc(N2C(=O)CC(SCCN)C2=O)cc1 (stereo not drawn) | -3.1%
O=C(O)COc1ccc(OCCNC[C@@H](O)COc2ccccc2)cc1 | 27.8%
Cc1nn(C)cc1CNC(=O)CCC(=O)O | -1.5%
CCOCCCN(C(=O)Nc1ccc(CC)cc1)C1CCN(C(C)=O)CC1 | 61.3%
COc1ccc(S(=O)(=O)Nc2cc(C)on2)cc1OC | -1.6%
CCOC(=O)Nc1cccc(OCC(=O)Nc2ccc(OC)cc2OC)c1 | 34.0%
O=S(=O)(c1ccccc1)N1CCN(c2nnnn2-c2ccccc2)CC1 | 3.3%
CCCCn1c(C(C)NC(=O)CC)nc2ccccc21 (stereo not drawn) | 27.6%
Cc1oc2cc3c(C(=O)N4CCCCC4)c(C)oc3cc2c1C(=O)N1CCCCC1 | 98.8%
CCN(CC)C(=O)CN1CCN(c2ccccc2F)CC1 | 4.8%
CCCNC(=O)N1CCN(S(=O)(=O)c2ccc(C)cc2)CC1 | 0.7%
NCCn1c(=O)c(CCc2ccccc2)nc2cncnc21 | 60.9%
CCCOc1ccc2oc(=O)c3c(c2c1)CCCN3C(=O)CN1CCc2ccccc2C1 | 91.5%
COc1ccc2nc(N3CCCC3)c(C#N)cc2c1 | 8.6%
CC(=O)c1cccc(-n2nnnc2SCC(=O)Nc2ccccc2N2CCCCC2)c1 | 20.4%
Cc1cc(C)nc(NC(=O)c2cccc(Cl)c2)n1 | 8.2%
NC(=O)C1CCN(c2ncnc3c(-c4ccccc4)nsc23)CC1 | 20.7%
O=C(NCCc1ccccc1)c1noc2c1CCCCC2 | 2.0%
COc1ccc(C(=O)N2CCC3(CCCN(CC(C)C)C3)CC2)cc1 | 64.4%
COc1ccc(OC)c(S(=O)(=O)Nc2ccc(CC(=O)O)cc2)c1 | -3.0%
O=C(O)c1sccc1S(=O)(=O)c1ccccc1 | -8.2%
O=C(Cc1cccs1)Nc1nc(-c2ccccc2)cs1 | -9.8%
O=C(C[N+]1(c2ccccc2)CCOCC1)c1ccccc1 | 4.0%[5.75 µM]
Cc1ccc(SCC(=O)N2CCCC2)cc1 | 6.2%
CCOC(=O)C1=C(C)NC(C)=C(C(=O)OCC)C1c1nc2ccccc2[nH]1 | 8.7%
CCOC(=O)N1CCN(C(=O)c2ccc(NC(=O)c3ccc(C)cc3)cc2)CC1 | 46.2%
CCC/C(O)=C1\C(=O)CC(C)(C)CC1=Nc1ccccc1OC | 52.1%
CN1C(=O)C2(NCCc3c2[nH]c2ccccc32)c2ccccc21 (stereo not drawn) | -2.4%
CCCCC/C=C\C/C=C\C/C=C\C/C=C\CCCC(=O)NCC(=O)O | 145.7%
Cc1ccc(O)c(C(CC(=O)N2CCCC2)c2ccccc2)c1 (stereo not drawn) | 24.9%
Cc1ccc(C(C(=O)NCc2ccco2)N(CC2CCCO2)C(=O)Cn2nnc3ccccc32)cc1 (stereo not drawn) | 29.2%
c1ccc(-n2ncc3c2ncn2cnnc32)cc1 | 5.0%
COc1cc(NC(=O)Cc2ccc(Cl)cc2)ccc1NC(=O)c1ccco1 | -5.5%
O=C(Nc1ccccc1C(F)(F)F)c1ccc(F)c(S(=O)(=O)N2CCOCC2)c1 | 9.1%
COc1ccc(N2C(=O)C3CCCN3C2c2ccccc2)cc1Cl (stereo not drawn) | 9.7%
COc1cccc(C(=O)Nc2cccc(-c3nnc(-c4ccccc4)o3)c2)c1 | 0.9%
CCc1nnc(NC(=O)Cn2nc(-c3ccccc3OC)ccc2=O)s1 | 16.9%
CCOC(=O)CNC(=O)C1CCCN(c2ncccn2)C1 (stereo not drawn) | -8.8%
Nc1nonc1/C(=N/O)N1CCCC1 | -22.4%
C#CCCCC(=S)Nc1ccccc1 | -1.0%
O=C(CCN1C(=O)C2C3C=CC(C3)C2C1=O)NCC1CCCO1 (stereo not drawn) | -5.4%
COc1ccc(OCCCSc2ncccn2)cc1 | 6.8%
CCC(=O)Oc1ccc2c(C)c(Cl)c(=O)oc2c1 | -16.0%
CCCCCn1c(N)c(C#N)c2nc3ccccc3nc21 | -10.5%
Cc1cc2ncn(C3CC(=O)N(Cc4ccc(N5CCCC5=O)cc4)C3=O)c2cc1C (stereo not drawn) | 70.1%
O=C(O)Cn1nc(C(F)(F)F)c2c1CCCCC2 | -6.7%

# Some values from the entries so far:
# AmpC inh no det with CCC(=O)Oc1ccc2c(C)c(Cl)c(=O)oc2c1 is entered as -16.0%
# AmpC inh no det with O=C(O)Cn1nc(C(F)(F)F)c2c1CCCCC2 is entered as -6.7%

# Following part:
molecule | AmpC inh no det
Cc1cc(C)n(CCCNCC(O)c2ccccc2)n1 (stereo not drawn) | -6.4%
CC(C(=O)NCc1ccc2c(c1)OCO2)N1c2cccc3cccc(c23)S1(=O)=O (stereo not drawn) | -16.6%
COc1cccc(-c2nc(CS(=O)(=O)CC(=O)NCCCOC(C)C)c(C)o2)c1 | 85.0%
COC(=O)c1ccc(N2CCOCC2)c(NC(=O)Nc2cccc(OC)c2)c1 | 48.4%
CCOC(=O)c1nnc2cc(-c3ccc(Br)cc3)nn2c1C | 23.9%
CCCCC(=O)Nc1ccc(NC(=O)c2ccccc2OC)cn1 | 2.5%
Cc1ccc2[nH]c(=O)c(CN(Cc3cccnc3)C(=O)c3ccncc3)cc2c1 | 10.1%
c1ccc2c(NCCN3CCOCC3)nc(-c3ccoc3)nc2c1 | 31.7%
CC1CCc2c(C(=O)NCC3CCCO3)csc2C1 (stereo not drawn) | 17.6%
Cc1nn(C(C)C(=O)O)c2ccccc12 (stereo not drawn) | 2.0%
CNC[C@@H](SC)c1ccc(O)c(O)c1 | 1.9%[5.75 µM]
Cc1cc(C(=O)Nc2cccc(C(=O)O)c2)oc1C | 3.0%
CCOc1ccccc1NC1c2ccccc2C(=O)N1c1cccnc1 (stereo not drawn) | 31.2%
CC(NC(=O)c1ccncc1)C(c1cccs1)N1CCOCC1 (stereo not drawn) | -7.2%
CCOC(=O)N1CCC(NC(=O)CN2C(=O)CSc3nc(C)cc(C)c32)CC1 | 3.7%
COc1ccc(C(=O)c2cnc(C(C)C)n2C)cc1 | 4.3%
O=c1ccc(=O)[nH][nH]1 | -0.5%
COc1ccc(C(C)C)cc1S(=O)(=O)NCc1ccccn1 | 21.0%
CCC(C)c1ccccc1NC(=O)c1cccnc1 (stereo not drawn) | 0.2%
Cc1onc(-c2ccccc2Cl)c1C(=O)NCc1nc(-c2ccccc2)no1 | 8.2%
CC1CCN(C(=O)Cc2nn(C)c(=O)c3ccccc23)CC1 | -0.7%
CSc1nc2nc3c(c(=O)n2[nH]1)CN(Cc1ccccc1)CC3 | -3.3%
CCOc1ccc(OCC)c(NC(=O)CN(C)S(=O)(=O)c2cnc[nH]2)c1 | 21.0%
Cc1ccc2cc(CN(Cc3ccco3)S(=O)(=O)c3c(C)ccc4nsnc34)c(=O)[nH]c2c1 | 10.9%
COc1cccc(-n2c(SCC(=O)N3CCCC3)nc3c([nH]c4ccccc43)c2=O)c1 | 11.3%
COCCn1c(SCC(=O)N(C(C)C)C(C)C)nnc1-c1cc2ccccc2cc1O | 21.3%
Cc1cccc(S(=O)(=O)C(C#N)c2nc3ccccc3nc2N2CC(C)OC(C)C2)c1 (stereo not drawn) | 38.9%
COC(=O)[C@@]1(Cc2ccccc2)[C@H]2c3cc(C(=O)N(C)C)n(C)c3C[C@H]2CN1C(=O)c1ccccc1 | 160.6%
CCn1c(O)c(C=NCCN2CCOCC2)sc1=S | -9.4%
COc1cccc(C(=O)OCn2nnc3ccccc3c2=O)c1OC | 4.8%
CCCCn1c(=S)[nH]c2ncccc2c1=O | -12.3%
CCOc1ccccc1NS(=O)(=O)c1c(C)noc1C | -4.8%
Cc1nc2nc(-c3cccs3)cn2nc1C | 0.8%
CC(=O)Nc1nc(COc2ccccc2)cs1 | -7.1%
O=c1cc[nH]c2cccc(Cc3ccccc3)c12 | -3.5%
O=C(Cc1c(O)c2ccccc2[nH]c1=O)OC1CCCCC1 | -13.8%
COc1ccc(N)c(C)c1 | 1.8%
CC(C)CNC(=O)c1cc(-c2ccc(Br)cc2)on1 | -19.9%
O=C(CNCC1CCCO1)Nc1ccccc1N1CCOCC1 (stereo not drawn) | -11.2%
CC(Oc1ccc(Br)cc1)C(=O)N1CCc2ccccc21 (stereo not drawn) | 15.5%
CC(C)(C)OC(=O)N1CCNc2ccccc2C1 | 28.1%
CC(C)n1cnc2c(C(=O)N[C@H]3CN4CCC3CC4)cc(Cl)cc21 | 32.9%
Cc1ccc(C(=O)Nc2c(C(=O)NCc3ccco3)cnn2-c2ccccc2)cc1 | 4.5%
CC1(C)NC(=O)N(c2ccccc2Cl)C1(C)NO (stereo not drawn) | 12.2%
CNC(=O)C1CC(=O)N(c2ccc(C)cc2)C1 (stereo not drawn) | 6.8%
COc1ccccc1NC(=O)C1C2CCCCC21 (stereo not drawn) | -4.5%
Cc1ccc2c(c1)NC(=O)C(CC(=O)NCCCN1CCN(c3cc(Cl)ccc3C)CC1)O2 (stereo not drawn) | 76.4%
COCCN1C(=O)c2ccccc2C(C(=O)NCc2ccco2)C1c1c[nH]c2ccccc12 (stereo not drawn) | 84.8%
CC(C)(C)c1cc(NC(=O)COC(=O)C2CC2)n(-c2ccccc2)n1 | 5.0%
CCC(c1nnnn1C1CCCC1)N1CCN(c2ccccc2F)CC1 (stereo not drawn) | 40.4%
O=C(NCc1cccnc1)c1c[nH]c2cc3c(cc2c1=O)OCCO3 | -13.3%
CCN(CC(=O)O)CC(=O)O | 0.3%[5.75 µM]
COc1ccc(C)cc1S(=O)(=O)Nc1cccc(Cl)c1 | 6.9%
O=c1/c(=C/c2ccccn2)sc2nc3ccccc3n12 | -2.0%
CCOc1nc(-c2ccccc2)ccc1-c1noc(COc2ccccc2)n1 | -22.4%
Cn1c(=O)cc(SCC(=O)NCCCN2CCOCC2)c2ccc(Cl)cc21 | 14.4%
O=C(c1ccccc1)N(Cc1ccccc1)c1ccccn1 | -6.7%
CC(=O)c1cc(Cc2csc(C(C)=O)c2)cs1 | -3.2%
O=C(CN1C(=O)NC2(CCCC2)C1=O)Nc1nc(-c2ccc(F)cc2)cs1 | 20.3%
CCOc1cccc(NC(=O)C2CC(=O)N(C)C(=Nc3cccc(F)c3)S2)c1 (stereo not drawn) | 52.3%

# Next part.
molecule | AmpC inh no det
O=C(O)c1cc2n(n1)C(C(F)(F)F)CC(c1ccco1)N2 (stereo not drawn) | -10.0%
CC(=O)OCn1nnc2ccccc2c1=O | -11.1%
COC(=O)CSc1nsc(SCC(=O)OC)n1 | -17.3%
CCOc1ccc(C=NC23CN4CN(CN(C4)C2)C3)cc1 | 6.3%
COc1cc2c(N3CCOCC3)cc(O)c(CC(=O)Nc3ccccc3)c2cc1OC | -7.2%
O=C(CCCCCN1C(=O)CCC1=O)Nc1ccc(Br)cc1F | 7.4%
O=C(O)c1c(Cl)c(Cl)c(Cl)c(Cl)c1C(=O)N1CCOCC1 | -3.7%
COC(=O)Nc1ccc2c(c1)N(C(=O)CCN1CCOCC1)c1ccccc1S2 | 99.2%
CN(Cc1ccccc1)c1nc2c(c(=O)[nH]c(=O)n2C)n1CCOc1ccccc1 | 87.6%
Cc1ccnc(SCC(=O)O)n1 | -2.4%
CCOCCCN(CCC#N)S(=O)(=O)c1ccc(S(=O)(=O)N2CCCC2)cc1 | 49.4%
Cc1ccc(C(=O)Nc2ccc(Cl)cn2)cc1 | -20.5%
CS(=O)(=O)N1CCC2(CCCN(C(c3ccccc3)c3ccccc3)C2)CC1 | 72.2%
CCCCN(CC)CCCNC(=O)CS(=O)(=O)Cc1nc(-c2cccc(OC)c2)oc1C | 50.7%
CC1Cc2ccccc2N1C(=O)C12CCC(C)(C(=O)C1)C2(C)C (stereo not drawn) | 44.4%
O=C(NCCO)c1nc(NCCO)c2ccccc2n1 | -0.8%
OC1C[N+]2(CCCCC2)C1 | -3.4%
CC1(C)CC(=O)C=C(NCCCN2CCCC2=O)C1 | 6.4%
CC1CCc2nc(NC(=O)Cc3cccs3)sc2C1 (stereo not drawn) | -12.1%
COCc1cc(C)[nH]c(=O)c1C#N | -11.7%
CCOC(=O)N1CCC(NC(=O)C(NS(=O)(=O)c2ccc3c(c2)CCN3C(C)=O)C(C)C)CC1 (stereo not drawn) | 7.6%
CN1CCN(C(=O)COc2ccc3ccccc3c2Br)CC1 | 58.4%
c1ccc2[nH]c(-c3ccnc4ccccc34)nc2c1 | 25.4%
CCn1ncc(CN2CCN(C(=O)Nc3ccccc3C(=O)OC)CC2)c1C | 65.9%

# Exported as labelled records: two of the compounds above.
> CCn1ncc(CN2CCN(C(=O)Nc3ccccc3C(=O)OC)CC2)c1C
- AmpC inh no det: 65.9%
> CCOC(=O)N1CCC(NC(=O)C(NS(=O)(=O)c2ccc3c(c2)CCN3C(C)=O)C(C)C)CC1 (stereo not drawn)
- AmpC inh no det: 7.6%

# Following part:
molecule | AmpC inh no det
Nc1ccccc1CCCC(=O)O | 0.1%[5.75 µM]
Oc1c(Cl)cccc1Cl | -7.4%
O=c1ccc2cc(O)c(O)cc2o1 | -11.2%[12.8 µM]
O=C(O)c1cc(Nc2nc(N3CCOCC3)nc(N3CCOCC3)n2)ccc1Cl | -9.6%
Cc1ccc(S(=O)(=O)N2CCCC2C(=O)OCc2ccco2)cc1 (stereo not drawn) | -1.3%
Clc1nc(NCCc2ccccc2)c2ncn(-c3ccccc3)c2n1 | -11.1%[5.75 µM]
CCCc1[nH]nc2c1C(c1ccc(OC(=O)N3CCOCC3)cc1)C(C#N)=C(N)O2 (stereo not drawn) | 7.1%

# Some of the compounds tested; the hit share may differ from the screen's.
